Compound activity deposited in PubChem BioAssay by several laboratories.
PABP polyA inh: PABP-poly(A) binding inhibition; hit rate 1% among 290,000; inhibition, % at 35 µM; PABP-poly(A) RNA binding, fluorescence polarization; AID 2014; P11940;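 active = 50% or more with normal probe brightness, or confirmed in later tests; inconclusive = above 50% with abnormal brightness, or retests that disagree; inactive = below 50% or failed in later tests; about a fifth of its hits are not listed in these tables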;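 also: calls also rest on retests at 20 µM and on dose response follow-up; controls were probe without protein and protein plus probe with vehicle; some compounds called inactive have numbers as strong as hits; many hits fall short of the cut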
Target sequence (P11940 whole entry, looked up): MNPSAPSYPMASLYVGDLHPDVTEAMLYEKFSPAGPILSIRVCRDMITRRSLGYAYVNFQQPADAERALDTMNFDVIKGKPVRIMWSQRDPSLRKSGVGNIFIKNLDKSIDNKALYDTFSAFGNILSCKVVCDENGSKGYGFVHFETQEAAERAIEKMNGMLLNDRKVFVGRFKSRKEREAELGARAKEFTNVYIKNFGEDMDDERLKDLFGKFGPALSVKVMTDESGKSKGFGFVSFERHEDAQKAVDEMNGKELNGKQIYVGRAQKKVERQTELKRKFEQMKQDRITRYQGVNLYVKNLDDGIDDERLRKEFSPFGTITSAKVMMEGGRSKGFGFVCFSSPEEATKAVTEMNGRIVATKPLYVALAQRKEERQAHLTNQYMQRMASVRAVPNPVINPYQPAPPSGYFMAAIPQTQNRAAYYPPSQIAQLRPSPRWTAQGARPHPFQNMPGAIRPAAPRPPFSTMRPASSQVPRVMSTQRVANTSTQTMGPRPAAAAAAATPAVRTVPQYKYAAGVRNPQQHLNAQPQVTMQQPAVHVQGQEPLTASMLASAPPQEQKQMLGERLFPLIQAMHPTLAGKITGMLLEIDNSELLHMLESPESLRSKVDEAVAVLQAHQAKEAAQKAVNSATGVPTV
Rce1 inh: yeast Ras-converting enzyme inhibition; hit rate 0.27% among 290,000; AID 2563; Q03530; yeast membranes, quenched prenylated peptide cleavage fluorescence; calls only;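 active = fall in fluorescence gain of 50% or more versus controls, with final raw signal at or below 3038400; inconclusive = same 50% fall but final raw signal above 3038400; inactive = fall in fluorescence gain under 50%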;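 also: plate controls were neutral control wells for no effect and wells lacking membranes for full effect; tested at 10 µM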
Target sequence (Q03530 whole entry, looked up): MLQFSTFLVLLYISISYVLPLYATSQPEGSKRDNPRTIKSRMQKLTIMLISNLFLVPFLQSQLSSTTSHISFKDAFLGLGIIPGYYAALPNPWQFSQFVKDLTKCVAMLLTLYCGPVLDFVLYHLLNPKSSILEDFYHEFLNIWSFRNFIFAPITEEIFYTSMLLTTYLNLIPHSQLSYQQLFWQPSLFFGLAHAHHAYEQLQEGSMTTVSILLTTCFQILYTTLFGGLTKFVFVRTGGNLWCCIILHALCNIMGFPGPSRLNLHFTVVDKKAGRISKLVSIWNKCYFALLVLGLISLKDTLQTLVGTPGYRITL
eIF4H FP inh: inhibitors of RNA binding by human eIF4H. Q15056. eIF4H fluorescence polarization binding assay. inhibition, % at 35 µM. hit rate 0.94% among 290,000;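 active = 50% or more with normal probe brightness, or confirmed in later tests; inconclusive = above 50% with abnormal brightness, or retests that disagree; inactive = below 50% or failed in later tests; about a fifth of its hits are not listed in these tables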;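 also: calls also rest on retests at 20 µM and on dose response follow-up; 0% = protein and probe with vehicle and 100% = probe without protein; strong numbers were not always called active; many hits fall short of the cut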
MT1-MMP act inh: MT1-MMP (human) activation inhibition | GFP/RFP ratio change, % at 20 µM | hit rate 0.061% among 360,000 | HT1080 RFP-PRO-GFP cells, GFP/RFP ratio fluorescence, overnight; percent of plate control window, DMSO zero | P50281 | AID 651647;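 active = GFP/RFP ratio change of at least 30% with cell ATP level not reduced by more than half and red fluorescence within 50% of control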; also: strong numbers were not always called active
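Assay system: HT1080 cells carrying an RFP-PRO-GFP reporter | Dosing: Single dose of 20 µM compound, 1% DMSO final | Incubation: Cells overnight before dosing, compound overnight, 37 °C, 5% CO2 | Evaluation: GFP/RFP fluorescence ratio | Control set: DMSO and RFP-L50D-GFP cell wells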
Env fusion inh: HIV envelope-mediated fusion inhibition; hit rate 1.1% among 360,000; HeLa-JRFL Env/CEM21 cell fusion, luciferase; inhibition, % at 12.3 µM;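 active = mean replicate inhibition score of at least 50 and every replicate individually at or above 50; inconclusive = only one of the two criteria met; inactive = mean below 50 and not all replicates reaching 50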;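 also: 0% = plate neutral controls and 100% = maraviroc near 300 nM; one replicate is shown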
CSC inhib: cancer stem cell inhibition | hit rate 1.1% among 300,000 | cancer stem cell-like cells viability, luminescence | inhibition, % at 7.5 µM | AID 2717;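 active = mean at 75% or more and at least half the replicates too; inconclusive = mean and replicates disagree; tested in HMLE shEcad cells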;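 also: 0% = median of negative and 100% = median of positive control wells; the first replicate is given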
UUG fidelity: yeast start codon fidelity modulation. S. cerevisiae UUG-firefly luciferase reporter, luminescence/redox ratio. activity score, % at 18.7 µM. hit rate 0.13% among 350,000. AID 602363;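 active = replicate mean at a twofold rise or more, about +100% in these data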;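 also: firefly luciferase made from a UUG start codon reports start codon fidelity; reporter light over untreated wells divided by growth signal over untreated wells; some hits fall short of that in this replicate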
eIF4H FP inh retest: second read-out of eIF4H FP inh, no call of its own (marks repeat the call); inhibition, %; compound at 20 µM; confirmation average;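 mean of two retest wells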
PABP polyA inh retest: second read-out of PABP polyA inh, no call of its own (marks repeat the call); inhibition, %; compound at 20 µM; confirmation repeats;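 mean of two retest wells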
MT1-MMP act inh RFP: also measured in MT1-MMP act inh; calls as there; RFP signal change, %; measured here: RFP expression control read;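 0 = vehicle wells; hits needed this value within 50% of zero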
Active calls of the source: *; i = inactive; ? = inconclusive; . = no result given; & = joins results of further samples; [ ] = dose if it differs, or a comment.

SMILES	PABP polyA inh	Rce1 inh	eIF4H FP inh	MT1-MMP act inh	MT1-MMP act inh RFP	Env fusion inh	CSC inhib	UUG fidelity	others
CCOC(=O)c1ccc(-n2ccnc2)c(NC(=O)c2ccc(C(C)(C)C)cc2)c1	5	i	-14	1	8	0	16	.
CCOC(=O)c1c(C)oc(NC(=O)COc2ccc(Cl)cc2C)c1C#N	-3	i	-1	-3	-1	-60	-6	.
CCC(=NNS(=O)(=O)c1ccc(C)cc1)c1ccc(OC)c(C)c1	.	.	.	1	3	-6	.	-19
COc1cc(N2CN=c3s/c(=C\c4ccccn4)c(=O)n3C2)cc(OC)c1OC	11	i	4	-6	0	.	-18	-38
O=C(OCCOc1ccccc1)c1cccc(S(=O)(=O)N2CCOCC2)c1	.	.	.	1	-4	-2	.	-16
CCOc1ccc(N2C(=O)CC(N3CC(C)OC(C)C3)C2=O)cc1 (stereo not drawn)	11	i	4	8	4	-24	-10	-21
Cc1snc(SCC(=O)N/N=C(\N)COc2ccc(F)cc2)c1C#N	11	i	6	-7	-2	-93	6	-24
Cc1c(CCO)c(=O)oc2n[nH]c(-c3ccccc3)c12	55	i	0	-6	2	25	-2	.	eIF4H FP inh retest=42;PABP polyA inh retest=46
CCCOc1ccc(Cn2cnc3ccccc32)cc1	2	.	-4	9	-15	60*	1	-24
COCc1nc(-c2cc(OC)c(OC)c(OC)c2)no1	-9	i	-2	9	4	-76	-2	-16
c1ccc(CCc2ccccn2)cc1	.	.	.	6	4	-7	.	-18
COc1cccc(NC(=O)CN(C)C(=O)c2ccccc2OCc2c(C)noc2C)c1	.	i	.	2	4	-35	-9	.
COc1cccc(-c2ccc3ncnc(NCc4ccc5c(c4)OCO5)c3c2)c1	.	.	.	-14	-8	15	.	-11
COc1ccc(CCNS(=O)(=O)c2ccc3c(c2)CC(C)N3C(=O)C2CC2)cc1OC (stereo not drawn)	.	.	.	4	0	-113	.	1
Cn1c(=O)c2sccc2n2c(CCCC(=O)NC3CCN(Cc4ccccc4)CC3)nnc12	4	i	-7	3	1	-5	-3	-20
CN(C)c1cccc(NC(=O)C2(C)Cc3c(-c4cccnc4)ccnc3O2)c1 (stereo not drawn)	.	.	.	-3	0	-10	.	-7
COc1ccc(N2C(=O)CC(Sc3ccccc3C(=O)O)C2=O)c([N+](=O)[O-])c1 (stereo not drawn)	6	i	-5	-2	1	-5	-11	-10
Cn1ncc(Oc2ccc([N+](=O)[O-])cc2)c(Cl)c1=O	3	i	0	1	1	3	-5	-9
CCOc1ccc(-n2c(=O)[nH]cc(C(=O)Nc3ccc(OC)c(OC)c3)c2=O)cc1	-12	i	-11	0	4	2	-8	-8
Clc1ccc(-c2n[nH]c3c2CCC3)c(Cl)c1	8	i	6	-10	-10	.	5	-18
COC(=O)c1ccc(CN(c2ccc(C(=O)O)c(O)c2)S(=O)(=O)c2ccc(Cl)c([N+](=O)[O-])c2)cc1	7	i	-5	-1	-1	8	92*	-17
O=C1CC(N2CCN(C/C=C/c3ccccc3)CC2)C(=O)N1Cc1ccc(N2CCCC2=O)cc1 (stereo not drawn)	4	i	6	8	-11	?	4	0
CCOC(=O)N1CCN(S(=O)(=O)c2ccc(C(=O)Nc3ccc4c(c3)C(=O)NC4=O)cc2)CC1	-18	i	-12	-3	-2	.	5	-28
CC1Cc2ccccc2N1C(=O)COC(=O)c1ccc(S(=O)(=O)N(C)C)cc1 (stereo not drawn)	-4	i	2	2	7	.	-8	-4
Nn1c(SCC(=O)NC2CCCc3ccccc32)nnc1-c1cccs1 (stereo not drawn)	0	i	5	1	3	1	-10	-14
O=C(NCCOC(=O)c1ccc(F)cc1)c1ccc(F)cc1	11	i	0	0	-1	-16	-4	-8
COC(=O)c1cn[nH]c1NC(=S)Nc1ccc(C)cc1Cl	-6	i	2	1	-2	i	-8	-37
Cc1cc(C)c(S(C)(=O)=O)c(Oc2cccc(Cl)c2)n1	-4	i	-5	4	6	.	-7	-39
CCNC(=S)NNC(=O)c1cc(-c2cccc(OCC)c2)nc2ccccc12	9	i	18	6	0	-47	-3	-21
Cc1ccc(NC(=O)Cn2c(=S)[nH]c3ccccc32)cc1	9	i	8	-1	2	-8	-13	.
COc1ccc(CCNC(=O)C2CC(=O)N(c3ccccc3)C2)cc1OC (stereo not drawn)	-12	i	-6	1	1	-49	-4	-15
O=C(Nc1nnc(C2CC2)s1)c1cccc(S(=O)(=O)N2CC(c3ccccc3)CC2=O)c1 (stereo not drawn)	-2	i	-12	-2	-1	-1	.	8
C=CCNC(=O)Cn1c(=O)c2c(ncn2CCC(C)C)n(Cc2ccccc2)c1=O	-2	i	-7	-2	-3	-3	-1	-8
CC(C)c1c(C#N)c(N)nc(SCC(=O)c2cc3ccccc3oc2=O)c1C#N	-8	i	2	-42	-20	-65	3	-8
CCOC(=O)CN(C(=O)CN1CCOCC1)c1ccc(Br)cc1	3	i	-3	0	1	-24	-11	-17
COc1ccccc1NC(=O)c1ccc(NC(=O)CSc2nnnn2C)cc1	6	i	-3	3	3	.	-2	-18
COCCn1c(C)cc(C(=O)CSc2cc(C)c3ccccc3n2)c1C	3	i	8	3	-1	.	4	-3
CCOc1ccccc1N1CCN(S(=O)(=O)c2cccs2)CC1	4	i	-3	-1	2	.	0	-9
CCN(CC)CC(O)c1ccc2ccc3ccc(O)cc3c2c1 (stereo not drawn)	.	.	.	3	2	1	.	16
Cc1ccc(S(=O)(=O)Nc2ccc(-c3ccc4nncn4n3)cc2)cc1	.	i	.	1	3	4	.	-8
CCOc1ccc(NC(=O)Cc2c(O)c3ccccc3[nH]c2=O)cc1	2	i	-5	1	0	.	-16	-13
CSc1ccc(/C=C/C(=O)OCC(=O)N(C)CCC#N)cc1	3	i	-6	6	4	-4	-9	.
CN1CCN(NC(=O)NC2CCCCC2)CC1	-1	i	1	-2	0	.	-14	-11
O=C1c2cccc3c(N4CCCCC4)ccc(c23)C(=O)N1c1cccc(O)c1	?	i	?	-97	12	-30	23	.
C=CCn1c(Br)nc2c1c(=O)n(C)c(=O)n2C	2	i	-10	1	4	.	-8	3
O=C(N/N=C\c1cc2c(cc1Cl)OCO2)c1cccs1	-21	.	-12	-4	2	-64	-2	-6
Cc1c(N(C)S(=O)(=O)c2cccc(C(=O)NCc3cccnc3)c2)c(=O)n(-c2ccccc2)n1C	.	.	.	1	1	8	.	-17
COC(=O)c1cccc(C(=O)N2CCCC(Nc3ccc4c(c3)OCCO4)C2)c1 (stereo not drawn)	4	i	-18	1	0	-1	-9	-10
COc1ccc(CNS(=O)(=O)c2ccc(NC(=O)N3CCCCC3)cc2)cc1	-5	i	-11	3	-19	.	-4	3
O=C(CN(Cc1ccc(F)cc1)C(=O)CNS(=O)(=O)c1ccccc1)NCC1CCCO1 (stereo not drawn)	-4	i	3	2	6	5	-1	7
O=C1ON=C(c2ccccc2)/C1=C/c1ccc(OS(=O)(=O)c2ccccc2)cc1	2	.	5	-3	7	.	0	.
COc1ccc(S(=O)(=O)NCCSC(C)(C)C)cc1Cl	8	i	1	0	-4	13	-15	-7
CCOc1ccccc1C(=O)Nc1cc(=O)n(C)c(=O)n1C	-3	i	3	2	7	-6	-10	-14
Cc1cc(C)nc(NC(=O)CSc2nc3ccccc3o2)n1	20	i	10	6	4	-32	-2	-18
COc1cc(S(=O)(=O)N2CCN(Cc3ccccc3)CC2)ccc1Br	-8	i	-10	3	1	.	-1	-3
COc1ccc(S(=O)(=O)n2nc(OC(=O)c3ccccc3Br)cc2N)cc1	-6	i	-15	9	8	.	6	-32
COc1ccc(CNC(=O)c2cc(C3CC3)on2)cc1	2	i	5	0	2	-14	-23	-17
Cc1ccc(Nc2ccc(S(=O)(=O)N3CCOCC3)cc2[N+](=O)[O-])c(C)c1	-5	i	6	-8	-16	15	2	3
O=C(Nc1ccc(C(F)(F)F)cc1)C1CCCCN1S(=O)(=O)c1ccccc1 (stereo not drawn)	.	.	.	1	-13	16	.	-12
Cc1ccc(NC(=O)C2CCCN(c3nccc(C)n3)C2)c(C)c1 (stereo not drawn)	6	i	8	2	3	-6	-5	-41

The list goes on, overlapping the part above by 3 compounds.
SMILES	PABP polyA inh	Rce1 inh	eIF4H FP inh	MT1-MMP act inh	MT1-MMP act inh RFP	Env fusion inh	CSC inhib	UUG fidelity	others
Cc1ccc(Nc2ccc(S(=O)(=O)N3CCOCC3)cc2[N+](=O)[O-])c(C)c1	-5	i	6	-8	-16	15	2	3
O=C(Nc1ccc(C(F)(F)F)cc1)C1CCCCN1S(=O)(=O)c1ccccc1 (stereo not drawn)	.	.	.	1	-13	16	.	-12
Cc1ccc(NC(=O)C2CCCN(c3nccc(C)n3)C2)c(C)c1 (stereo not drawn)	6	i	8	2	3	-6	-5	-41
COC(=O)CN1C(=O)Nc2ccc(Br)cc2C1c1ccccc1 (stereo not drawn)	-4	i	11	6	3	18	3	-4
O=C1C2CCCN2c2ccc(S(=O)(=O)N3CCOCC3)cc2N1Cc1cccc(C(F)(F)F)c1 (stereo not drawn)	1	.	-8	.	.	.	-1	.
CN(C(=O)c1ccncc1)c1nnc(-c2ccncc2)s1	15	i	-4	3	-1	.	6	-25
O=C1CC(N2CCOCC2)C(=O)N1c1cc(Cl)cc(Cl)c1 (stereo not drawn)	8	i	-4	1	13	-16	10	-19
CCOc1ccc(S(=O)(=O)N2CCC(C(=O)NCc3ccccn3)CC2)cc1Cl	-5	i	-11	2	0	1	.	0
N#Cc1cn(-c2ccccc2)nc1-c1ccco1	-1	i	-6	-1	1	-119	-6	-16
COc1ccccc1Nc1nnc(SCC(=O)c2cc(C)n(CC3CCCO3)c2C)s1 (stereo not drawn)	-1	i	-2	2	-1	.	-11	-9
O=C(c1ccc(Cl)cc1)c1ccc(OCC(=O)N2CCOCC2)cc1	.	i	.	-2	1	-9	4	-18
CC(=O)OC(C(=O)NC1CCCCC1)c1ccncc1 (stereo not drawn)	24	i	5	0	3	.	-1	-12
O=C(OCC(=O)N1CCCC1=O)C1COc2ccccc2O1 (stereo not drawn)	67	i	-6	-1	4	-104	-6	.	eIF4H FP inh retest=3;PABP polyA inh retest=0
COC(=O)c1ccc(COc2cccnc2[N+](=O)[O-])cc1	4	i	-9	2	1	-14	.	-11
Cc1cccc2cc(CN(CC3CCCO3)C(=S)NCc3ccco3)c(=O)[nH]c12 (stereo not drawn)	4	i	5	-1	-3	-20	-16	-18
N#Cc1nc(-c2cccs2)oc1NCc1ccccc1	-6	i	-1	3	-2	.	-3	-13
Cc1cccc(OCCNC(=S)NC(=O)c2cccnc2)c1	-5	i	8	1	2	9	-5	.
COc1ccccc1NC(=O)N1CCCC1	-4	i	-5	6	2	-17	.	7
CCO[C@H]1OC(C(=O)NC2CC2)=C[C@@H](C2CCCCC2)[C@@H]1CCCO	-4	i	-8	-1	0	-12[16.7 µM]	-8	17&-7
COc1ccc(-n2c(=O)c(CCC(=O)N(C)Cc3ccccc3C)nc3ccccc32)cc1	-6	i	-4	12	-2	17	-11	.
O=C1C2C3C=CC(C3)C2C(=O)N1c1n[nH]c(-c2ccccc2)n1 (stereo not drawn)	2	i	2	4	6	-45	0	-14
Cc1ccc(OC(=O)CCNC(=O)c2ccccc2Cl)c(Br)c1	.	i	.	0	-3	3	.	.

A portion of the library; the hit share may differ from the screen's.
